PABP FP inh: PABP poly(A) RNA binding inhibitors, primary screen, biochemical, fluorescence polarization, uHTS; Polyadenylate-binding protein 1 (Homo sapiens), P11940; inhibition, % at 35 µM; 290,000 compounds, 1% hits;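 active means 50% or more with normal probe brightness, or confirmed in later tests; inconclusive means above 50% with abnormal brightness, or retests that disagree; inactive means below 50% or failed in later tests; about a fifth of its hits are not listed in these tables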;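 further: calls also rest on retests at 20 µM and on dose response follow-up; controls were probe without protein and protein plus probe with vehicle; some compounds called inactive have numbers as strong as hits; many hits fall short of the cut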
Target sequence (P11940 whole entry, looked up): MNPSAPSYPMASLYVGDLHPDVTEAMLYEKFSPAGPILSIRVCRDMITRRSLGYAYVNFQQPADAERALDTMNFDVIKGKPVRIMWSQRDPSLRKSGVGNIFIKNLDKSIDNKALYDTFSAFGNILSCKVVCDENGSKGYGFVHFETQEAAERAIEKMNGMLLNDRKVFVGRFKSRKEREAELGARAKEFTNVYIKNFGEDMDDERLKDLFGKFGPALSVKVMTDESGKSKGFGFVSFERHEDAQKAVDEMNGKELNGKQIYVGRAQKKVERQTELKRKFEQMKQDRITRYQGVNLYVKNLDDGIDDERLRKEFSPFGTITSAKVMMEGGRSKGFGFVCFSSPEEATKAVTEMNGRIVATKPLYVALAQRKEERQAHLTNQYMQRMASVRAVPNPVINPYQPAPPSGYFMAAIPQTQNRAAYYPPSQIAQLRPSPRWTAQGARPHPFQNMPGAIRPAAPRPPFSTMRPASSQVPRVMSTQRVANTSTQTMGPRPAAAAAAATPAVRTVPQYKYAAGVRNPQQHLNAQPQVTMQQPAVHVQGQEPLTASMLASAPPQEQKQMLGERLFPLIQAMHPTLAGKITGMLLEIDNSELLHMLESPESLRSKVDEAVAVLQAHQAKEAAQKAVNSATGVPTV
Yeast UUG start: modulators of yeast start codon fidelity, primary screen, whole organism, S. cerevisiae, single point, plate reader; S. cerevisiae UUG-firefly luciferase reporter, luminescence/redox ratio; activity score, % at 18.7 µM; 350,000 compounds, 0.13% hits; AID 602363, 2012;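 active means replicate mean at a twofold rise or more, about +100% in these data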;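 further: firefly luciferase made from a UUG start codon reports start codon fidelity; reporter light over untreated wells divided by growth signal over untreated wells; some hits fall short of that in this replicate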
eIF4H inh: human eIF4H binding inhibitors, primary screen, translation initiation inhibitor project, biochemical, uHTS, fluorescence polarization. inhibition, % at 35 µM. eIF4H fluorescence polarization binding assay. AID 2012, 2009. Eukaryotic translation initiation factor 4H (Homo sapiens), Q15056. 290,000 compounds, 0.94% hits;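 active means 50% or more with normal probe brightness, or confirmed in later tests; inconclusive means above 50% with abnormal brightness, or retests that disagree; inactive means below 50% or failed in later tests; about a fifth of its hits are not listed in these tables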;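 further: calls also rest on retests at 20 µM and on dose response follow-up; 0% = protein and probe with vehicle and 100% = probe without protein; strong numbers were not always called active; many hits fall short of the cut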
CSC inhib: cancer stem cell viability inhibitors, primary screen, luminescence; cancer stem cell-like cells viability; inhibition, % at 7.5 µM; 300,000 compounds, 1.1% hits;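 active means mean at 75% or more and at least half the replicates too; inconclusive means mean and replicates disagree; tested in HMLE shEcad cells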;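 further: 0% = median of negative and 100% = median of positive control wells; the first replicate is given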
Rce1 inh: yeast Rce1p protease inhibitors, primary screen, biochemical, fluorescence, cell-free homogeneous. CAAX prenyl protease 2 (Saccharomyces cerevisiae (strain ATCC 204508 / S288c)), Q03530. yeast membranes, quenched prenylated peptide cleavage fluorescence. calls only. 290,000 compounds, 0.27% hits;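 active means fall in fluorescence gain of 50% or more versus controls, with final raw signal at or below 3038400; inconclusive means same 50% fall but final raw signal above 3038400; inactive means fall in fluorescence gain under 50%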;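 further: plate controls were neutral control wells for no effect and wells lacking membranes for full effect; tested at 10 µM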
Target sequence (Q03530 whole entry, looked up): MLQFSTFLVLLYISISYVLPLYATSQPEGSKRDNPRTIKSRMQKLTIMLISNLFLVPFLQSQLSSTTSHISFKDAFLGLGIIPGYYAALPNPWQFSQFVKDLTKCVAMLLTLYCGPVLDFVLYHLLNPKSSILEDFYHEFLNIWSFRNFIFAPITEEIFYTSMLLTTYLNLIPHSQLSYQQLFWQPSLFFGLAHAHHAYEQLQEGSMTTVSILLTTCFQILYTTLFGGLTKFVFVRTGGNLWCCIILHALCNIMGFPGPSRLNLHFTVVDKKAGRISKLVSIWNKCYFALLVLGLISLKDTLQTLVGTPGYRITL
MT1-MMP act inh: blockers of MT1-MMP proenzyme processing, primary screen, HT1080 RFP-PRO-GFP cells, GFP/RFP fluorescence; Matrix metalloproteinase-14 (Homo sapiens), P50281; GFP/RFP ratio change, % at 20 µM; AID 651647, 2012; GFP/RFP ratio fluorescence, overnight; percent of plate control window, DMSO zero; 360,000 compounds, 0.061% hits;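 active means GFP/RFP ratio change of at least 30% with cell ATP level not reduced by more than half and red fluorescence within 50% of control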; further: strong numbers were not always called active
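Assay system: HT1080 cells carrying an RFP-PRO-GFP reporter | Dosing: Single dose of 20 µM compound, 1% DMSO final | Incubation: Cells overnight before dosing, compound overnight, 37 °C, 5% CO2 | Evaluation: GFP/RFP fluorescence ratio | Control set: DMSO and RFP-L50D-GFP cell wells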
Env fusion inh: inhibitors of HIV-1 Env-driven cell-cell fusion, primary screen, HeLa-JRFL effector, CEM21 target cells, luciferase; inhibition, % at 12.3 µM; 360,000 compounds, 1.1% hits;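 active means mean replicate inhibition score of at least 50 and every replicate individually at or above 50; inconclusive means only one of the two criteria met; inactive means mean below 50 and not all replicates reaching 50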;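 further: 0% = plate neutral controls and 100% = maraviroc near 300 nM; one replicate is shown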
MT1-MMP act inh RFP: recorded beside MT1-MMP act inh, whose call it bears; RFP signal change, %; measured here: RFP expression control read;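 0 = vehicle wells; hits needed this value within 50% of zero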
The depositor's hits bear a star; i = inactive; ? = inconclusive; nt = not tested or not shown; & = joins results of further samples. This is a subset; rates above refer to the full screens.

no.	canonical_smiles	PABP FP inh	Yeast UUG start	eIF4H inh	CSC inhib	Rce1 inh	MT1-MMP act inh	MT1-MMP act inh RFP	Env fusion inh
1	O=C(NCCCc1ccccc1)N1CCOCC1	-2	-14	-2	0	i	2	0	-8
2	CN(C(=O)c1ccccc1C(=O)OCC(=O)c1ccc(F)c(F)c1)C1CCCCC1	nt	-2	nt	nt	nt	-6	-3	10
3	Cc1c(C(=O)N2CCN(c3ccccc3)CC2)oc2c(F)cccc12	-9	9	-14	7	nt	3	0	nt
4	COc1cc(CNCCSc2nnnn2C)cc(Br)c1OCc1ccccc1F	12	-11	1	17	i	2	-1	nt
5	COc1ccccc1N(CC(N)=O)S(=O)(=O)c1ccc(C)cc1	5	nt	1	-1	i	0	-1	nt
6	CCn1c(O)c(/C=C2\C=NN=C2c2ccccc2)sc1=S	1	nt	-7	17	i	0	-5	3
7	COc1cccc(C(=O)N2CCN(C3CCC(c4ccccc4)CC3)CC2)c1OC (centres undefined)	8	nt	-8	22	i	2	0	nt
8	O=C(OCCN1CCCCC1)c1cc2ccccc2o1	16	-22	-1	-12	i	-1	1	23
9	CCn1c2ccccc2c2n[nH]c(=S)nc21	-1	-8	-7	0	i	2	5	?
10	Cc1ccc2c(c1)c1c3n2CCNC3CCC1 (centres undefined)	18	-13&-5	11	nt	i	-2&-1	-1&-2	-141&1
11	O=C(c1ccccc1Cl)N1CCN(Cc2ccc3c(c2)OCO3)CC1	2	-10	-9	-12	i	-1	-13	10
12	Cc1cccc(-n2ccnc2CN2CCC(CO)(Cc3ccccc3)CC2)c1	13	nt	1	-25	i	5	3	-11
13	Cc1noc(C)c1C(=O)NCc1ccccc1	-11	2	9	-11	i	0	5	nt
14	Cn1c(SCC(=O)N/N=C/c2ccc([N+](=O)[O-])s2)nnc1-c1ccccc1	-6	nt	48	28	i	3	-10	-10
15	CC(=O)Nc1cccc(/C(C)=N/NC(=O)c2ccccc2Cl)c1	-2	3	-2	-9	i	3	1	nt
16	Cc1cccc(NC(=S)NC2CC3CCCC(C2)N3Cc2ccccc2)c1C (centres undefined)	1	nt	-8	-3	i	2	6	-5
17	O=C(NNC(=O)c1ccccc1F)c1ccco1	8	-9	4	-2	i	0	-1	-9
18	O=C(CN1N=C(c2ccc(Cl)cc2)CCC1=O)NCCN1CCc2ccccc2C1	-3	6	-5	9	i	0	-1	-17
19	CCn1c(O)c(N=NC2=NC(=O)CS2)c2cc(C)ccc21	4	-16	6	2	i	6	1	nt
20	CC(C)CC(=O)Nc1nc(-c2ccc(S(=O)(=O)N3CCOCC3)cc2)cs1	3	8	-5	nt	i	-3	-20	8
21	Cn1c(=O)c2c(nc(CN3CCN(c4ccccc4)CC3)n2Cc2c(F)cccc2Cl)n(C)c1=O	-13	2	-9	-3	i	-3	-2	-118
22	COc1ccc(C(=O)Nc2ccc(C(=O)N3CCOCC3)cc2)cc1OC	5	-7	6	7	i	1	3	6
23	CCOCCCn1c(SCC(=O)Nc2cc(OC)ccc2OC)nc2ccccc2c1=O	6	10	2	-1	i	0	-1	12
24	CC(=O)Nc1ccc(C(=O)N(C)C(C(=O)Nc2ccc(C)cc2)c2ccccn2)cc1 (centres undefined)	6	nt	2	-10	i	3	7	4
25	CCc1ccc(-c2n[nH]nc2C2=CC(=O)C[C@H](c3ccc(F)cc3)C2)cc1	nt	0	nt	nt	nt	-6	-26	3
26	C[C@@H](C(=O)NCc1ccccc1)[C@@H]1C[C@@]1(C)[C@@H](NC(=O)OCc1ccccc1)c1ccccc1	-8	-12	-6	-8	i	-12	-12	-26
27	COc1ccc(/C=C2\CCC/C(=C\C=N\N(C)C)C2=O)cc1	8	nt	19	86*	i	1	-7	-23
28	O=C(COC(=O)CNC(=O)c1ccc([N+](=O)[O-])o1)Nc1ncc(Cl)cc1Cl	nt	9	nt	22	nt	2	4	nt
29	CCCN1C(=O)CC(=O)N=C1SCC(=O)Nc1ccccc1F	nt	-16	nt	1	nt	-2	3	nt
30	CCCOc1ccc(/C(O)=C2/C(=O)C(=O)N(c3cc(C)on3)C2c2ccc(C(=O)OC)cc2)cc1 (centres undefined)	4	3	0	2	i	0	4	nt
31	COc1ccccc1CC(=O)Nc1ccc([N+](=O)[O-])cc1O	-3	nt	-7	31	nt	-1	-8	-3
32	CCCC(=O)NCc1ccccc1Cl	-5	-16	0	0	i	1	7	-4
33	Cc1cc(OCC(=O)Nc2ccncc2)c(C)cc1Br	-1	-16	2	-13	i	8	0	-12
34	CCCCN(CC)S(=O)(=O)N1CCC(C(=O)NCCCN2CCOCC2)CC1	-2	nt	-9	-11	i	2	1	nt
35	Cc1cc(C(=O)N/N=C/c2cccc(OC(=O)c3cccc(Br)c3)c2)n[nH]1	-10	-12	-16	-2	i	2	3	-277
36	CCCCn1c2nc3ccccc3nc2c2c(=N)oc(C)nc21	17	1	1	nt	nt	-11	-1	nt
37	Cc1cc(OCC(=O)Nc2ccc(CN3CCOCC3)cc2)c2c(C)c(C)c(=O)oc2c1	-8	-3	-6	-3	i	15	4	-5
38	COc1ccc(C)cc1S(=O)(=O)Nc1ccc(-n2c(C)nc3ccccc3c2=O)cc1	nt	-28	nt	-10	i	nt	nt	2
39	Cc1c(Cc2ccccc2)c(=O)oc2cc(O)ccc12	17	9	30	15	?	-5	-1	-32
40	COc1ccc(C(C(=O)Nc2ccc(C(C)C)cc2)N(Cc2ccco2)C(=O)CC2NC(=O)NC2=O)cc1 (centres undefined)	2	nt	-1	-2	i	-4	-4	4
41	O=C(Nc1ccc(N2CCN(C(=O)c3ccco3)CC2)cc1)c1cccs1	-2	-21	-1	-7	i	1	-3	-11
42	COc1ccc(Cn2nnnc2C(c2ccccc2Cl)N2CCN(C3CCCC3)CC2)cc1 (centres undefined)	9	nt	9	nt	i	-1	1	nt
43	COc1ccc(CC(=O)N2CC3(C)CC2CC(C)(C)C3)cc1 (centres undefined)	-9	1	-16	20	i	-1	1	nt
44	CCn1cc(C(=O)NCC(C)C)c(=O)c2cc(F)c(N3CCN(C(=O)c4ccco4)CC3)cc21	2	-12	-1	6	i	2	1	5
45	Cc1ccc(S(=O)(=O)n2nccc2-c2c(-c3ccccc3)noc2C)cc1	-3	-13	7	44	i	-7	-16	21
46	CC(C)c1ccc(N2C(=O)CSC23C(=O)N2CCCc4cccc3c42)cc1 (centres undefined)	-5	-19	-2	-2	i	-1	-2	nt
47	Cc1ccc(S(=O)(=O)Oc2ccccc2N2C(=O)C3CC=CCC3C2=O)cc1 (centres undefined)	2	-27	3	3	i	4	1	-51
48	CCCCCCC1CC(/C(C)=N\NC(N)=O)OC1=O (centres undefined)	-7	nt	0	-3	i	-1	2	13
49	CC(=O)Nc1ccc(NC(=O)c2csc([C@@H]3O[C@H](CO)[C@H](O)[C@H](O)[C@H]3O)n2)cc1	nt	-14	nt	nt	nt	5	9	42
50	CC1(C)C2CC=C(/C=N/NC(=O)C3CC3)C1C2 (centres undefined)	5	nt	-10	-12	i	1	6	6
51	CCOC(=O)N1CCC(NC(=O)Cn2cc3c(n2)CCCCC3)CC1	-1	-10	5	10	i	9	2	-3
52	CC(C)(C)C(=O)Nc1nnc(-c2ccncc2)o1	-10	nt	-7	3	i	3	3	0
53	COC(=O)c1sc2nc(C)c([N+](=O)[O-])c(C)c2c1N	-4	-5	-2	-6	nt	-3	-4	-58
54	CN1C(=O)C(CC(=O)NC2CCCCC2)N(C)C1=O (centres undefined)	-3	nt	5	1	i	2	3	-6
55	COc1cc(CCC(=O)Nc2cnc3ccccc3c2)cc(OC)c1OC	12	-4	-2	5	i	0	2	4
56	CC1CCCCN1C(=O)CSc1nnc(Cc2ccccc2)n1C (centres undefined)	2	-10	-6	7	i	5	7	nt
57	COc1ccc(S(=O)(=O)N2CCN(C(=O)c3c(C)nn(-c4ccccc4)c3Cl)CC2)cc1	-11	4	3	-2	nt	1	-1	nt
58	Cc1ccc(NC(=O)CSc2nc(=O)n(CCCN3CCOCC3)c3c2CCCC3)cc1F	nt	-2	nt	-8	i	0	-2	0
59	O=S(=O)(Cc1cc(NCc2ccccc2)nc(-c2ccncc2)n1)c1ccccc1	-2	nt	12	-9	i	3	-2	11
60	COCC(=O)NCCc1ccc(S(N)(=O)=O)cc1	-7	-16	3	-12	i	-6	0	nt

Other results.
no.	canonical_smiles	PABP FP inh	Yeast UUG start	eIF4H inh	CSC inhib	Rce1 inh	MT1-MMP act inh	MT1-MMP act inh RFP	Env fusion inh
61	CC(=O)N1CCN(c2nc(CC(C)C)c3c(c2C#N)CCC3)CC1	6	4	-4	18	i	1	-1	nt
62	CCCn1c(=O)c(C(=O)NCc2ccccc2Cl)c(O)c2ccccc21	0	1	-11	61	i	-1	-1	-5
63	CC(C)C(N)c1csc(NC(=O)Nc2cccc(C(F)(F)F)c2)n1 (centres undefined)	nt	-12	nt	nt	nt	-9	-11	-7
64	CCOc1ccc([C@@H]2CC=C(C(=O)O)[C@H](c3ccc(Cl)cc3)N2S(=O)(=O)c2ccc(C)cc2)cc1	nt	-7	nt	7	nt	0	2	-8
65	Cc1ccc(S(=O)(=O)NCC(=O)OCC(=O)NCc2ccc(F)cc2)cc1	0	nt	-2	-14	i	6	9	0
66	CO/N=C1\CCn2c1c(C)c1ccccc12	6	-24	-2	-9	i	4	0	-172
67	COc1ccccc1CNC(=O)C(=O)NCCC1CCCCN1S(=O)(=O)c1cccs1 (centres undefined)	nt	-2	nt	3	i	-4	-7	3
68	O=C(/C=C/c1cccc(F)c1)c1ccc(N2CCOCC2)cc1	-8	-2	-6	7	i	-4	-8	7
69	COc1ccc(/C=C(\C#N)C(=O)NCCCn2ccnc2)cc1	?	nt	-8	-7	i	2	3	4
70	Cc1cc(C)c2c(c1)cc(C)c1nnc(SCC(=O)Nc3cc(C)on3)n12	-7	14	6	34	i	8	-7	nt
